Cruzain Triton: qHTS Assay for Promiscuous and Specific Inhibitors of Cruzain (with detergent) | Cruzipain (Trypanosoma cruzi), P25779 | purified cruzain, Z-FR-AMC fluorescence, 0.01% Triton | Potency, µM, for the others: max response, negative = inhibition, actives largely listed as inhibitors | 200,000 tested, 0.43% active | AID 1478, 2009;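 further: plate controls were neutral wells for no effect and buffer without enzyme for full effect; nearly all actives have a fitted effect of over 40% in size; top concentration of the series not given in the record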
Target sequence (P25779 123-467 limits assumed): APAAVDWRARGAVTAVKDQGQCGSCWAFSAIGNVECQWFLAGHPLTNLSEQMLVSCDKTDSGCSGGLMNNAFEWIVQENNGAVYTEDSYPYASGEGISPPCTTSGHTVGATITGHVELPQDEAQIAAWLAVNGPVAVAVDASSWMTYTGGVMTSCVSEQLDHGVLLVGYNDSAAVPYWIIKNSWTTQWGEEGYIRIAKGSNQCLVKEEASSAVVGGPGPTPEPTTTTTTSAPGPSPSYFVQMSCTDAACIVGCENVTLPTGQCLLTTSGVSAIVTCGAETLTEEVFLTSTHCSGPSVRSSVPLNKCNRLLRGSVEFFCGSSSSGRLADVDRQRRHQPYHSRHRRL
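Sodium acetate buffer (100 mM, pH 5.5) containing 5 mM DTT and 0.01% Triton X-100 hosted 1.5 nM cruzain and test compound for 15 min at room temperature. Cleavage of 2 uM Z-FR-AMC was then tracked by fluorescence.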
NS1 inh: qHTS Assay for Inhibitors of Influenza NS1 Protein Function; S. cerevisiae slowed by influenza A NS1, growth recovery by OD600; Potency, µM (doses to about 46.1 µM), for inactives: at the top dose activity, positive = more growth; 270,000 tested, 0.4% active; AID 2326, 2010; active means well fitted rising curve with a large enough effect; inconclusive means small, poorly fitted or top-dose-only effect; inactive means no such curve, though single readings can be large or run the other way; further: nearly all actives have a fitted effect of over 50% in size
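Growth recovery, yeast-based: influenza A NS1 expressed in S. cerevisiae causes slow growth, and suppressors are detected by OD600. The parent strain without NS1 is used as positive control.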
2A StopGo: High Throughput Screening for Foot and Mouth Disease Virus Antivirals; human cells with a luciferase reporter of 2A StopGo recoding; control for the full effect not named in the record; Potency, µM (highest dose often 57.9 µM), inactives show at the top dose signal change, negative = less light; 410,000 tested, 1.2% active; AID 1159524, 2015; active = well fitted falling curve with a large enough effect; inconclusive = small, poorly fitted or top-dose-only effect; inactive = no such curve, though single readings can be large or run the other way; tested in HEK293T cells; further: on the % scale 0 is the no-effect control and ±100 the full control effect; nearly all actives have a fitted effect of over 45% in size; luciferase light after 4 h
Cruzain inh noDet: qHTS Assay for Promiscuous and Specific Inhibitors of Cruzain (without detergent); Cruzipain (Trypanosoma cruzi), P25779; purified cruzain, Z-FR-AMC fluorescence, no detergent; Potency, µM, without a hit: max response, negative = inhibition, hits mostly inhibitors; 200,000 tested, 2.3% active; AID 1476, 2009;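 further: plate controls were enzyme without inhibitor for no effect and buffer without enzyme for full effect; nearly all actives have a fitted effect of over 40% in size; top concentration of the series not given in the record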
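Detergent-free condition (0.00005% Triton X-100) in acetate buffer pH 5.5 with DTT. 1.5 nM enzyme and compound were pre-mixed 15 min, then 2 uM Z-FR-AMC substrate added; reaction progress from fluorescence change between first and third reads (60 s).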
RE007 growth inh: qHTS Assay for Inhibitors of the HIV-1 protein Vpr | AID 651644, 2012 | 360,000 tested, 0.21% active | S. pombe RE007 Vpr strain, BacTiter-Glo ATP luminescence, 24 h; control for the full effect not named in the record | Potency, µM (highest dose often 92.2 µM), without a hit: at the highest dose activity change, negative = less growth; active = well fitted falling curve with a large enough effect; inconclusive = small, poorly fitted or top-dose-only effect; inactive = no such curve, though single readings can be large or run the other way;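 further: on the % scale 0 is the no-effect control and ±100 the full control effect; nearly all actives have a fitted effect of over 50% in size; the assay follows cell death caused by Vpr and the record does not say whether a fall means rescue or toxicity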
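Fission yeast RE007 carrying one integrated HIV-1 vpr copy, seeded at OD 0.01 in PMG+AL medium with 23 nL pinned compound. Grown 24 h at 30 degrees; viability read by BacTiter-Glo luminescence after 5 min.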
MARV entry inh: qHTS for inhibitors of binding or entry into cells for Marburg Virus | Marburg virus pseudotyped entry inhibition, cell reporter; control for the full effect not named in the record; about a third of the inactives were read at about 46 µM | Potency, µM (top dose mostly 37.8 µM), without a hit: at the highest dose activity change, negative = inhibition, hits mostly inhibitors | 300,000 tested, 1.8% active | AID 540276, 2011; active = well fitted inhibition curve with a large enough effect; inconclusive = small, poorly fitted or top-dose-only effect, or effect the other way; inactive = flat fitted curve, though single readings scatter; tested in HEK293 cells; about a fifth of its hits are not listed in these tables; further: on the % scale 0 is the no-effect control and ±100 the full control effect; luciferase read-out
SARS PLpro yeast: qHTS of Yeast-based Assay for SARS-CoV PLP | S. cerevisiae expressing SARS-CoV PLpro, growth rescue; control for the full effect not named in the record | Potency, µM (top dose mostly 32.9 µM), without a hit: at the highest dose activity, positive = growth rescue | 330,000 tested, 0.19% active; active means well fitted rising curve with a large enough effect; inconclusive means small, poorly fitted or top-dose-only effect; inactive means no such curve, though single readings can be large or run the other way; further: 0% is about no effect; nearly all actives have a fitted effect of over 55% in size; growth read by luminescence after 48 h
Lassa entry inh: qHTS for Inhibitors of binding or entry into cells for Lassa Virus; Lassa virus pseudotype entry inhibition, cell reporter; control for the full effect not named in the record; Potency, µM (titrated, usually from 37.9 µM), without a hit: top-dose activity change, negative = inhibition, hits mostly inhibitors; 300,000 tested, 1.2% active; active means well fitted inhibition curve with a large enough effect; inconclusive means small, poorly fitted or top-dose-only effect, or effect the other way; inactive means flat fitted curve, though single readings scatter; tested in HEK293 cells; further: on the % scale 0 is the no-effect control and ±100 the full control effect; nearly all actives have a fitted effect of over 50% in size; luciferase read-out
An asterisk follows results filed as active; & = joins results of further samples; [ ] = dose if it differs, or a comment. Unless noted, the call rests on the fitted dose curve; in most records, active means well fitted curve in the direction sought with a large enough effect; inconclusive means small, poorly fitted or top-dose-only effect, or another doubt; inactive means no such curve, though single readings can be large; an effect the other way counts as inactive or inconclusive. Potency means the concentration at half of the fitted maximal effect. Compounds as they come; any-hit rate near 4.5%.

What do the screens show for `O=C1C2C3c4ccccc4C(c4ccccc43)[C@@H]2C(=O)N1c1cccnc1` (some centres not stated)?
Cruzain Triton: -1.6%; NS1 inh: -1%; 2A StopGo: inconclusive; Cruzain inh noDet: -6%; RE007 growth inh: -22%; MARV entry inh: inconclusive; SARS PLpro yeast: -10%; Lassa entry inh: 1%

How did COc1ccc(CNC(=O)COc2ccc(S(=O)(=O)N3CCOCC3)cc2)cc1 do in these assays?
2A StopGo: -9%; RE007 growth inh: 0%; MARV entry inh: 16%; SARS PLpro yeast: 1%; Lassa entry inh: 15%

How did NS(=O)(=O)c1ccc(CCNS(=O)(=O)c2cccc3nsnc23)cc1 do in these assays?
NS1 inh: -15%; 2A StopGo: -5%; RE007 growth inh: 6%; MARV entry inh: 0%[46.1 µM]; SARS PLpro yeast: 0%

How did N#Cc1ccc(CSc2nnc(-c3cccnc3)n2-c2ccccc2)cc1 do in these assays?
Cruzain Triton: -0.5%; NS1 inh: -16%; Cruzain inh noDet: 7%; RE007 growth inh: 2%; MARV entry inh: -3%; SARS PLpro yeast: -5%; Lassa entry inh: -6%

Results for Fc1ccc2nc3c(nc2c1)CCCC3 ?
NS1 inh: 6%; 2A StopGo: -12%; RE007 growth inh: 22%; SARS PLpro yeast: 11%

How did CCN(CC)C(=O)CSc1nc2sc3c(c2c(=O)n1-c1ccc(C)cc1)CC(C)(C)SC3 do in these assays?
Cruzain Triton: -12%; NS1 inh: 15%; 2A StopGo: -20%; Cruzain inh noDet: 22%; RE007 growth inh: 7%; MARV entry inh: 6%; SARS PLpro yeast: 5%; Lassa entry inh: 15%

How did COc1ccc2c(c1)c(CC(=O)Nc1c(C)cccc1C)c(C)n2C(=O)c1ccc(Cl)cc1 do in these assays?
Cruzain Triton: 0.9%; 2A StopGo: inconclusive; Cruzain inh noDet: -12%; MARV entry inh: -16%[46.1 µM]; Lassa entry inh: 0%[46.1 µM]

What do the screens show for `Cc1cc(C)nc(NC(=NCCc2c[nH]c3ccccc23)NC(=O)c2ccco2)n1`?
Cruzain Triton: -3.3%; NS1 inh: -14%; 2A StopGo: inconclusive; Cruzain inh noDet: inconclusive; RE007 growth inh: -11%; MARV entry inh: 11µM*; SARS PLpro yeast: 5%; Lassa entry inh: inconclusive

Results for COc1ccc(COC(=O)C2CCN(S(=O)(=O)c3ccc(C)cc3)CC2)cc1 ?
2A StopGo: -7%; RE007 growth inh: -9%; MARV entry inh: 21%; SARS PLpro yeast: 4%; Lassa entry inh: -4%

How did COc1ccc2c(c1)C(C)=CC(C)(C)N2C(=O)CSc1nnc(-c2ccc(C)cc2)o1 do in these assays?
Cruzain Triton: -2.3%; NS1 inh: 1%; 2A StopGo: -25%; Cruzain inh noDet: 6%; RE007 growth inh: 6%; MARV entry inh: -26%; SARS PLpro yeast: -15%; Lassa entry inh: 2%

How did Cc1cc(C)nc(Sc2nc(Nc3ccccc3)nc(Sc3nc(C)cc(C)n3)n2)n1 do in these assays?
Cruzain Triton: -4.1%; NS1 inh: -1%; 2A StopGo: -11%; Cruzain inh noDet: 0%; RE007 growth inh: 8%; MARV entry inh: inconclusive; SARS PLpro yeast: -7%; Lassa entry inh: -6%

What do the screens show for `CCN(CC)S(=O)(=O)c1ccc(NS(=O)(=O)c2cccs2)cc1`?
2A StopGo: 17%; RE007 growth inh: -3%; MARV entry inh: -4%[46.1 µM]; SARS PLpro yeast: -1%; Lassa entry inh: -18%[46.1 µM]

How did O=C(O)c1cccc(NC(=O)c2cc(-c3cccc(Cl)c3)nc3ccccc23)c1 do in these assays?
NS1 inh: 14%; 2A StopGo: 11%; RE007 growth inh: -13%; MARV entry inh: 23%[46.1 µM]; SARS PLpro yeast: 0%; Lassa entry inh: -23%

What do the screens show for `C=CCN1C(=O)/C(=C/c2cccs2)S/C1=N\S(=O)(=O)c1ccc(F)cc1`?
Cruzain Triton: -4.8%; NS1 inh: 16%; 2A StopGo: -23%; Cruzain inh noDet: inconclusive; RE007 growth inh: 0%; MARV entry inh: -2%; SARS PLpro yeast: 21%; Lassa entry inh: 0%

What do the screens show for `COc1ccc(OCC#CCn2ccnc2)cc1`?
NS1 inh: 4%; 2A StopGo: -4%; RE007 growth inh: -19%; SARS PLpro yeast: 2%

Results for COc1ccc(CCN(C)C(=O)CNC(=O)c2ccccc2F)cc1OC ?
2A StopGo: -4%; RE007 growth inh: -4%; MARV entry inh: -1%[46.1 µM]; SARS PLpro yeast: -3%; Lassa entry inh: -4%[46.1 µM]

How did CC1C(=O)C(C)C(c2ccccc2)N(N=O)C1c1ccccc1 (configuration not stated) do in these assays?
2A StopGo: -21%; RE007 growth inh: 27%; MARV entry inh: inconclusive; Lassa entry inh: 17%

Results for CCOC(=O)N1CCN(C(=O)CSc2ncnc3sccc23)CC1 ?
2A StopGo: -8%; RE007 growth inh: -3%; MARV entry inh: -6%[46.1 µM]; SARS PLpro yeast: 0%; Lassa entry inh: -15%

Results for CCCCc1cc(=O)oc2cc(OC(C)C(=O)NCCN3CCOCC3)c(Cl)cc12 (configuration not stated) ?
NS1 inh: -8%; 2A StopGo: -6%; RE007 growth inh: 8%; SARS PLpro yeast: -13%

Results for COc1cc(NC(=O)c2cc3cccc(OC)c3o2)cc(C(=O)Nc2cccc(C(F)(F)F)c2)c1 ?
NS1 inh: 3%; 2A StopGo: inconclusive; RE007 growth inh: 3%; SARS PLpro yeast: 1%

What do the screens show for `COc1cc(-c2nnc(COC(=O)CSc3cc(C)c4ccccc4n3)o2)cc(OC)c1OC`?
Cruzain Triton: -1.5%; NS1 inh: -38%; 2A StopGo: 0%; Cruzain inh noDet: inconclusive; RE007 growth inh: 17%; MARV entry inh: 21%&21%; SARS PLpro yeast: -2%; Lassa entry inh: 7%

How did O=C1OC(c2ccc3ccccc3c2O)(c2ccc3ccccc3c2O)c2ccccc21 do in these assays?
2A StopGo: 9%; RE007 growth inh: 19%; MARV entry inh: 3%[46.1 µM]; Lassa entry inh: 10%[46.1 µM]

What do the screens show for `COC(=O)c1cc(S(=O)(=O)NCc2ccccc2OC)cn1C`?
NS1 inh: -2%; 2A StopGo: -5%; RE007 growth inh: -13%; SARS PLpro yeast: 2%

How did COc1ccccc1OCc1nnc(SCC(=O)N2CCCCC2)n1-c1ccccc1 do in these assays?
Cruzain Triton: -1.5%; NS1 inh: -6%; 2A StopGo: -2%; Cruzain inh noDet: 7%; RE007 growth inh: -8%; MARV entry inh: 12%&12%; SARS PLpro yeast: 7%; Lassa entry inh: -3%

What do the screens show for `Cn1cc(CN2C[C@]3(C)C[C@H]2CC(C)(C)C3)c(-c2ccc3c(c2)OCCO3)n1`?
NS1 inh: -5%; 2A StopGo: 78%[activator]; RE007 growth inh: -5%; MARV entry inh: inconclusive; SARS PLpro yeast: 1%; Lassa entry inh: inconclusive

What do the screens show for `Cc1ccccc1OCC(=O)Nc1ccc(N2CCN(C(=O)c3ccco3)CC2)cc1`?
NS1 inh: -12%; 2A StopGo: 28µM*; RE007 growth inh: inconclusive; MARV entry inh: inconclusive; SARS PLpro yeast: -8%; Lassa entry inh: inconclusive

What do the screens show for `CCCCNC(=O)[C@H](Cc1c[nH]c2ccccc12)NC(=O)c1ccccc1Cl`?
Cruzain Triton: -1.5%; NS1 inh: 8%; 2A StopGo: 41%[activator]; Cruzain inh noDet: 3%; RE007 growth inh: 4%; MARV entry inh: 7%; SARS PLpro yeast: 4%; Lassa entry inh: 19%

How did COC(=O)c1sccc1-n1cc(C#N)c(=O)n(C)c1=O do in these assays?
NS1 inh: 8%; 2A StopGo: -1%; RE007 growth inh: 0%; MARV entry inh: -11%; SARS PLpro yeast: 0%; Lassa entry inh: inconclusive

How did CCOC(=O)c1cc(CC)sc1NC(=O)c1ccc(N2CCOCC2)c([N+](=O)[O-])c1 do in these assays?
Cruzain Triton: 1.3%; NS1 inh: 7%; 2A StopGo: -2%; Cruzain inh noDet: 1%; RE007 growth inh: 10%; MARV entry inh: -9%; SARS PLpro yeast: 4%; Lassa entry inh: 1%

How did O=C(CCn1c(=S)[nH]c2ccccc2c1=O)NCC1CCCO1 (configuration not stated) do in these assays?
Cruzain Triton: -2.1%; NS1 inh: 7%; 2A StopGo: -20%; Cruzain inh noDet: -5%; RE007 growth inh: 5%; MARV entry inh: 13%; SARS PLpro yeast: 6%; Lassa entry inh: 6%

Results for N/C(CCS(=O)(=O)c1ccc(Cl)cc1)=N\OC(=O)c1ccccc1Cl ?
NS1 inh: -7%; 2A StopGo: -20%; RE007 growth inh: 5%; MARV entry inh: 2%[46.1 µM]; SARS PLpro yeast: -2%; Lassa entry inh: -15%

How did O=C(CS(=O)(=O)Cc1ccccc1)Nc1ccc2c(c1)OCO2 do in these assays?
2A StopGo: 125%[activator]; RE007 growth inh: 1%; MARV entry inh: 2%; SARS PLpro yeast: 0%; Lassa entry inh: -5%

How did O=C(CC(Nc1cccc(Cl)c1Cl)C(=O)OCC(=O)c1cccs1)c1ccccc1 (configuration not stated) do in these assays?
Cruzain Triton: -1.4%; NS1 inh: -1%; 2A StopGo: 14%; Cruzain inh noDet: inconclusive; RE007 growth inh: inconclusive; MARV entry inh: inconclusive; SARS PLpro yeast: 13%; Lassa entry inh: 3%

How did O=C(NCc1ccccc1)C1CCN(C(=O)Cc2ccccc2)CC1 do in these assays?
NS1 inh: -3%; 2A StopGo: -4%; RE007 growth inh: 1%; MARV entry inh: 0%; SARS PLpro yeast: 2%; Lassa entry inh: -20%

Results for CC1CCC(NC(=O)c2ccc3nc[nH]c3c2)CC1 (configuration not stated) ?
Cruzain Triton: 4.7%; NS1 inh: 8%; 2A StopGo: 68%[activator]; Cruzain inh noDet: -5%; RE007 growth inh: 11%; MARV entry inh: 19%; SARS PLpro yeast: -6%; Lassa entry inh: 0%

Results for CCN(CC)c1ccc(NS(=O)(=O)c2ccc(-c3cnc(C4CC4)o3)cc2)c(C)c1 ?
Cruzain Triton: -6.5%; 2A StopGo: -4%; Cruzain inh noDet: -14%; Lassa entry inh: inconclusive

Source: PubChem BioAssay
